Source: PubChem (several laboratories)
Mtb bLac sens: beta-lactam sensitization of Mtb H37Rv. M. tuberculosis H37Rv growth with meropenem, percent inhibition; hits of this screen are not shown here. inhibition, % at 25 µM. 330,000 tested, 0.27% active. AID 434955;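 active = about 74% or more and at least 40 points above the plate without the antibiotic, then above 30% in a dose series; inconclusive = first-round hits that could not be retested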;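 note: growth measured after seven days incubation then overnight dye step; 0% = bacteria only wells and 100% = bacteria with antibiotic; twin plates without the antibiotic show which effects depend on it; some results filed as inactive read as strong as hits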
Mtb H37Rv: M. tuberculosis H37Rv growth inhibitors, H37Rv strain (AID 1626); inhibition, % at 10 µM; hits with a dose series show IC50 in µM; 220,000 tested, 0.95% active; M. tuberculosis H37Rv growth inhibition; higher % means a stronger effect;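 active = confirmed in a dose series; inconclusive = inhibition above 80% but not taken into the dose series; inactive = below 80% or under 30% at every dose of the series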;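 note: bacteria incubated seven days before Alamar blue readout; 0% = bacteria only wells and 100% = bacteria with antibiotic wells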
RecA intein inh: inhibitors of M. tuberculosis RecA intein splicing | P9WHJ3 | cell-free RecA intein splicing, fluorescence | inhibition, %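 (about 9 µM by stock and volumes)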 | 290,000 tested, 0.75% active; in the data active = inhibition above about 30%; inconclusive = no clear call, values can overlap the other calls;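 note: 0% = vehicle wells and 100% = reference inhibitor control wells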
Target sequence (P9WHJ3 whole entry, looked up): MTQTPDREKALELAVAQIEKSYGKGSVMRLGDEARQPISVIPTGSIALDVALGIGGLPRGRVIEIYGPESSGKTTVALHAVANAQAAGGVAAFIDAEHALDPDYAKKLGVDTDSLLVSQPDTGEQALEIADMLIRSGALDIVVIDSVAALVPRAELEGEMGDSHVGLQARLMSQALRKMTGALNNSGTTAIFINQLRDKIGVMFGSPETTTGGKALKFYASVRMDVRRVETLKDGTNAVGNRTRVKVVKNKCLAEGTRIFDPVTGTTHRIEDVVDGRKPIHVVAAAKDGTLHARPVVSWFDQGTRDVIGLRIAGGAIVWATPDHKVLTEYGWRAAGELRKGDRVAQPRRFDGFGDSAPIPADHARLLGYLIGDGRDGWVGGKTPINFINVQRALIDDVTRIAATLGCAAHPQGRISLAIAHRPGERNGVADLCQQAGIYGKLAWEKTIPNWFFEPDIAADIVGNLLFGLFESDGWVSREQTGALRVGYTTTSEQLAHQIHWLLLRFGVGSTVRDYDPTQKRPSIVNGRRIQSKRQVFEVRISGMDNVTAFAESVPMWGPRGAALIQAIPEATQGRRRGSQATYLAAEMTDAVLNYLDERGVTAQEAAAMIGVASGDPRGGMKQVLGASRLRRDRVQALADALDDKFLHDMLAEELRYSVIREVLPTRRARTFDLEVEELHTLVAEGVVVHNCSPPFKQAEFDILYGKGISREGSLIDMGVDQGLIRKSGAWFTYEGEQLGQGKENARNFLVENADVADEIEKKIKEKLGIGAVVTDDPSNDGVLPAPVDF
Arbovirus inh: arbovirus infection inhibition; inhibition, % at 10 µM; arbovirus infection cell-based antiviral screen; AID 1251; 200,000 tested, 0.37% active;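 active = inhibition from about 30%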;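 note: bluetongue infection of BSR cells; cell survival read as ATP light after 72 h; 0% = infected wells without compound and 100% = uninfected wells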
YopH PTP inh: blocks Yersinia enterocolitica YopH tyrosine phosphatase | AID 898 | 140,000 tested, 0.16% active | inhibition, %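 (about 10 µM by stock and volumes)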 | fluorescence Ex485/Em525;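 active = inhibition of 50% or more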;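 note: controls were vehicle for no effect and minimum signal wells for full effect; inactives centre near -20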
Arbovirus inh repeat: second read-out of Arbovirus inh, no call of its own (marks repeat the call); inhibition, %; measured here: 10K subset replicate screen; many hits read low in the repeat;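 first of two repeat runs on a subset; 0% = infected and 100% = uninfected wells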
An asterisk follows results filed as active; ? = inconclusive; nt = no result given.

SMILES | Mtb bLac sens | Mtb H37Rv | RecA intein inh | Arbovirus inh | YopH PTP inh | others
CC1(C(=O)OCC(=O)Nc2ccccc2Cl)CC1(Cl)Cl (centres undefined) | 2 | 2% | -0.4 | 1 | nt
O=C(Nc1ccccc1C(=O)O)c1cc(S(=O)(=O)N2CCCCCC2)ccc1Cl | 6 | nt | -1.5 | nt | nt
Cc1cc(C)c2c(=O)c3c(oc2c1)C(=O)N(CCO)C3c1cccc(O)c1 (centres undefined) | -3 | 12% | 0.9 | 4 | -51
Cc1ccccc1NC(=O)NC1(C(=O)NCc2ccco2)CCCCC1 | 3 | nt | 0.9 | nt | nt
COCc1cc(C)nc(OCC(=O)N/N=C/c2ccc(OC)c(O)c2)c1C#N | -7 | -1% | -3.7 | 1 | -27
CCCS(=O)(=O)N1CCN=C1SCc1ccc(C)cc1 | -4 | -8% | 0.1 | 7 | nt
COc1cc(C)c(NC(=O)COc2ccc3c(c2)OCO3)cc1C | -4 | nt | 1.5 | nt | nt
CN(CC(=O)Nc1ccc(F)cc1)C(=O)COC(=O)c1cc([N+](=O)[O-])ccc1N1CCOCC1 | -7 | nt | -2.3 | nt | nt
O=C(O)c1sc2cc(C(F)(F)F)cnc2c1-c1cccs1 | 12 | 2% | -7.0 | 6 | nt
COCC(=O)N(Cc1cc2ccc(C)cc2[nH]c1=O)c1ccc(C)cc1C | 3 | nt | 1.1 | nt | nt
CCOc1ccccc1NC1=C(Cl)C(=O)N(c2ccc(OC)cc2)C1=O | -2 | -7% | -1.9 | 4 | -32
Cc1cc(C(=O)N/N=C2\CCCc3ccccc32)c(C)o1 | 8 | 1% | -0.8 | -2 | 3
COCc1cc(C)nc(SCc2ccc([N+](=O)[O-])cc2)c1C#N | 12 | nt | 2.3 | nt | nt
Cc1nn(-c2ccc(F)cc2)c(-n2cccc2)c1C(=O)N1CCN(C(=O)c2ccco2)CC1 | -4 | nt | 1.0 | nt | nt
N#CC(C#N)=Cc1ccc(OC(=O)c2ccccn2)cc1 | -2 | -3% | 0.9 | -8 | -30
Cc1ccc(C(=O)COC(=O)c2ccc(-c3cnc4ccccc4n3)cc2)cc1C | 4 | 2% | 1.4 | 0 | -17
N#C/C(=C\c1ccccn1)c1nc2ccccc2s1 | 19 | 15µM* | nt | -6 | nt
Cc1ccc(CNCc2ccc3c(c2)OCO3)cc1 | -3 | nt | -1.5 | nt | nt
COc1ccc(CN2CCN(C(=O)Cn3nc(C(=O)O)c4ccccc4c3=O)CC2)cc1F | 4 | nt | -0.4 | nt | nt
COc1cccc(CN(C)C(=O)c2ccccc2Sc2ccccc2C#N)c1 | 5 | nt | 4.5 | nt | nt
CS(=O)(=O)N1CCN(c2ccccc2F)CC1 | -10 | -18% | -0.2 | 9 | -3
CC(Sc1nc2ncc(Cl)cc2[nH]1)C(=O)c1c(N)n(C)c(=O)n(C)c1=O (centres undefined) | 7 | nt | -2.0 | nt | nt
Cc1[nH]c(=O)[nH]c(=O)c1/C=N\NC(=O)CCc1ccc(OC(C)C)cc1 | 1 | 3% | -0.7 | 5 | nt
CCc1cc(Cn2nc(C(=O)O)cc2-c2ccccc2)on1 | -4 | nt | -2.0 | nt | nt
Cc1ccc(-c2nc(CS(=O)(=O)CC(=O)N3CC(C)CC(C)C3)c(C)o2)cc1 (centres undefined) | -9 | 3% | 1.6 | 12 | -32 | Arbovirus inh repeat=10
CC(=O)N1CCCc2cc(S(=O)(=O)N3CCc4ccccc4C3)ccc21 | -7 | 5% | 1.8 | 9 | -31
O=C1Nc2ccccc2C1=Nc1cccc([N+](=O)[O-])c1 | -3 | nt | 3.9 | nt | nt
Cn1c(CC(=O)Nc2ccc(Cl)c(Cl)c2)nnc1SCC(=O)N1CCN(c2ccccc2)CC1 | nt | 8% | 0.0 | -15 | -10
COc1ccc(NS(=O)(=O)c2ccc(Oc3ncccn3)cc2)cc1 | -5 | 2% | -0.6 | 9 | -11
CCCCCCC(=O)c1c(O)n(-c2ccccc2OC)c(=O)[nH]c1=O | 0 | -7% | -0.2 | 0 | 16
COc1cc(/C=N\NC(=O)c2sc(N)nc2C)cc(OC)c1OC | 39 | 5% | -2.6 | 10 | -15
CCn1cc(C(=O)N[C@@H](CC(C)C)C(=O)NCCCn2ccnc2)c(=O)c2cc3c(cc21)OCO3 | 0 | nt | -2.0 | nt | nt
COc1cc(/C=C2\SC(=S)N(CC(=O)NC3=NCCS3)C2=O)cc(OC)c1OC | -4 | 1% | -0.6 | -6 | nt
Cc1c(N/C=C(\Cl)C(=O)C(F)(F)F)c(=O)n(-c2ccccc2)n1C | -4 | -3% | -1.0 | 8 | nt
Cn1c(C(=O)NCCN2CCOCC2)cc2sccc21 | -4 | -4% | -6.5 | 0 | -39
COc1ccc2nc(NNC(=O)c3cc(=O)c4ccccc4o3)sc2c1 | 1 | nt | -8.4 | 4 | nt
Cc1ccc(NNC(=O)c2ccno2)cc1C | -2 | -5% | 0.3 | nt | nt
CSc1ccccc1C(=O)Nc1cccc(C(C)=O)c1 | 5 | 4% | -1.6 | -10 | -6
CS(=O)(=O)N1CCCC(C(=O)NCCN2CCC(Cc3ccccc3)CC2)C1 (centres undefined) | -5 | 4% | 0.6 | 0 | -2
CCOC(=O)c1c(-c2ccc(F)cc2)csc1NC(=O)CN1C(=O)NC2(CCCCC2C)C1=O (centres undefined) | 5 | 9% | -0.5 | 4 | -26
COc1ccccc1CNC(=O)CN(c1ccc(C)cc1)S(=O)(=O)c1c(C)n[nH]c1C | -4 | -8% | 0.7 | -2 | -23
Cc1ccc(NC(=O)CC2C(=O)NC3CCCCC3N2C(=O)c2ccc(F)cc2)cc1C (centres undefined) | 2 | 0% | -0.3 | 6 | -20
CCCC(=O)Nc1ccc(C(=O)/C=C/c2ccc(SC)cc2)cc1 | 99 | ? | 5.0 | -1 | -41
CCNC(=S)NNc1nncc2ccccc12 | -11 | -2% | -4.3 | -7 | nt
COc1cccc(CN2CCNC(=O)C2CC(=O)NCc2cn3ccc(C)cc3n2)c1OC (centres undefined) | -2 | -2% | -0.9 | nt | nt
COc1cc(C(=O)N2CCSCC2)ccc1OC1CCN(C(C)=O)CC1 | -6 | nt | 0.5 | nt | nt
CCOc1ccc(NC(=S)N2CCCN(Cc3cccc(Cl)c3)C2)cc1 | 0 | 10% | 1.6 | -19 | nt
Cc1c(Nc2cc(N3CCOCC3)c3nonc3c2[N+](=O)[O-])c(=O)n(-c2ccccc2)n1C | 0 | 10% | 3.7 | 3 | nt
Cc1cccc(N=C2NN=C(c3ccccc3F)CS2)c1C | 8 | 0% | 2.5 | -14 | nt
Cc1ccccc1OCC(=O)N(CC(C)C)c1c(N)n(CC(C)C)c(=O)[nH]c1=O | -7 | -4% | -0.2 | nt | nt

Continued:
SMILES | Mtb bLac sens | Mtb H37Rv | RecA intein inh | Arbovirus inh | YopH PTP inh | others
COc1cc([N+](=O)[O-])ccc1NC(=O)NNC(=O)c1sccc1C | -16 | nt | 1.7 | nt | nt
CCOc1ccccc1CNC(=O)c1cc2oc3ccccc3c2n1CC | 1 | 4% | 20 | 0 | -28
O=C1CCC([N+](=O)[O-])C(c2ccc(Cl)cc2)N1 (centres undefined) | -8 | 10% | 0.7 | -1 | -4
O=C(NN1C(=O)C2C3CCC(O3)C2C1=O)c1ccco1 (centres undefined) | -2 | -6% | -2.6 | 5 | -32
O=C(CSC(=S)N1CCOCC1)Nc1nccs1 | 2 | 3% | 0.0 | nt | nt
C=CCc1ccccc1OCC(O)CN1CCN(c2ccc(C)cc2)CC1 (centres undefined) | 7 | 9% | 2.0 | 0 | -10
Cc1cc(/C=C2\SC(=S)NC2=O)c(C)[nH]1 | -1 | 3% | nt | 4 | nt
O=C(COC(=O)C1COc2ccccc2O1)NC(=O)NC1CCCC1 (centres undefined) | -14 | -5% | 1.7 | 3 | -37
COc1ccc(N2C(=S)N(C(=O)c3ccccc3)C(=Nc3ccccc3)C2=Nc2ccccc2)cc1 | 0 | 8% | 4.0 | nt | -21
CCCCNC(=S)NC(=O)c1ccc(Cl)cc1Cl | 69 | 5% | -6.5 | 6 | -13

Some of these compounds in order of molecular weight, low to high.
SMILES | Mtb bLac sens | Mtb H37Rv | RecA intein inh | Arbovirus inh | YopH PTP inh | others
O=C1CCC([N+](=O)[O-])C(c2ccc(Cl)cc2)N1 (centres undefined) | -8 | 10% | 0.7 | -1 | -4
O=C(CSC(=S)N1CCOCC1)Nc1nccs1 | 2 | 3% | 0.0 | nt | nt
CCCCNC(=S)NC(=O)c1ccc(Cl)cc1Cl | 69 | 5% | -6.5 | 6 | -13
Cc1cccc(N=C2NN=C(c3ccccc3F)CS2)c1C | 8 | 0% | 2.5 | -14 | nt
O=C(COC(=O)C1COc2ccccc2O1)NC(=O)NC1CCCC1 (centres undefined) | -14 | -5% | 1.7 | 3 | -37
COc1cc([N+](=O)[O-])ccc1NC(=O)NNC(=O)c1sccc1C | -16 | nt | 1.7 | nt | nt
CCOc1ccccc1CNC(=O)c1cc2oc3ccccc3c2n1CC | 1 | 4% | 20 | 0 | -28
C=CCc1ccccc1OCC(O)CN1CCN(c2ccc(C)cc2)CC1 (centres undefined) | 7 | 9% | 2.0 | 0 | -10
CCOc1ccc(NC(=S)N2CCCN(Cc3cccc(Cl)c3)C2)cc1 | 0 | 10% | 1.6 | -19 | nt
Cc1ccccc1OCC(=O)N(CC(C)C)c1c(N)n(CC(C)C)c(=O)[nH]c1=O | -7 | -4% | -0.2 | nt | nt
Cc1c(Nc2cc(N3CCOCC3)c3nonc3c2[N+](=O)[O-])c(=O)n(-c2ccccc2)n1C | 0 | 10% | 3.7 | 3 | nt
COc1cccc(CN2CCNC(=O)C2CC(=O)NCc2cn3ccc(C)cc3n2)c1OC (centres undefined) | -2 | -2% | -0.9 | nt | nt
COc1ccc(N2C(=S)N(C(=O)c3ccccc3)C(=Nc3ccccc3)C2=Nc2ccccc2)cc1 | 0 | 8% | 4.0 | nt | -21

Next compounds
SMILES | Mtb bLac sens | Mtb H37Rv | RecA intein inh | Arbovirus inh | YopH PTP inh | others
Cc1cc(C)c(NC(=O)c2ccc3c(c2)C(=O)N(Cc2cccnc2)C3=O)c(C)c1 | -9 | nt | -2.3 | nt | nt
CCOC(=O)C(NC(=O)Cc1ccccc1)(Nc1cc(C)on1)C(F)(F)F (centres undefined) | -2 | -10% | 3.5 | -1 | -2
CCOC(=O)CSc1nc(C(C)(C)C)nc2ccccc12 | 6 | 4% | 2.6 | -4 | nt
CCOC(=O)c1c(C)oc2ccc(OC(=O)N3CCOCC3)cc12 | 3 | -4% | -0.6 | -2 | -26 | Arbovirus inh repeat=3
COc1ccc(S(=O)(=O)N(CC(=O)NCc2ccncc2)c2ccc(C)cc2)cc1OC | -3 | nt | -1.8 | nt | nt
COc1ccc2c(c1OC)C(=O)N(c1ccc3c(c1)CCC3)C2=O | ? | -6% | 0.4 | -3 | 48
CCOC(=O)C1CCCN(C(=O)Cn2c(=O)c3cccn3c3cccnc32)C1 (centres undefined) | -3 | nt | 0.9 | nt | nt
C=CCN1C(=O)/C(=C/C=C2/N(CC)c3ccc(S(=O)(=O)N(C)C)cc3N2CC)SC1=S | 37 | 30% | 12 | 2 | nt
COc1ccc(Cc2n[nH]c(=S)n2Cc2ccccc2)cc1Cl | 0 | 0% | 3.7 | 0 | nt
CCOc1ccc(-n2c(SCC(=O)Nc3ccc4c(c3)OCO4)nc3ccccc3c2=O)cc1 | 0 | 60% | 7.3 | -8 | -1
CC(=O)N1N=C(c2ccco2)CC1c1cccs1 (centres undefined) | 0 | -11% | 1.0 | 6 | -33
CCCCC(=O)Nc1nnnn1CCC | 0 | 4% | -2.9 | 2 | -44
CN(C)Cc1ccc(F)cc1Sc1cc(Cl)ccc1Cl | -9 | 1% | 2.2 | -3 | -25
CCOC(=O)c1c(NC(=O)c2c(-c3ccccc3)noc2C)sc(C)c1-c1ccccc1 | -2 | 2% | 3.0 | 6 | -24
O=C(Cn1cnc2c(cnn2-c2ccc(Cl)cc2)c1=O)NC1CCCCC1 | 4 | -1% | nt | 1 | -22 | Arbovirus inh repeat=-3
CCN(CC)c1ccc(/C=N/NC(=O)C(O)c2ccccc2)cc1 (centres undefined) | 2 | -2% | -3.5 | 2 | nt
COc1cccc(N/C(=N/C(=S)Nc2ccc(C)cc2C)Nc2nc(C)cc(C)n2)c1 | -5 | 1% | 0.4 | nt | nt
O=c1[nH]c(C2CC2)nc2sc3c(c12)CCCC3 | -5 | -5% | -0.8 | -4 | nt
CCOc1ccccc1NC(=O)C1CCCCN1S(=O)(=O)c1ccc(F)cc1 (centres undefined) | 14 | 4% | 11 | -17 | -28
COC(=O)C[C@H]1c2cc(F)ccc2S(=O)(=O)N1Cc1ccccc1 | -4 | -2% | -0.4 | nt | nt

These rows are one share of the data; rates above refer to the full screens.
